Ecoli rRNA inh: inhibitors of bacterial rRNA selective over humanized ribosomes; E. coli WT GFP vs humanized-ribosome RFP mutants, fluorescence, 24 h; active compounds read low; DMSO median 0, no signal -100; GFP signal change (wild-type ribosome), % (test concentration not listed); 1.6% of 350,000 active; AID 720706;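 active = significant combined selectivity score with lowered wild-type GFP, culture density cut under 30%, mutant RFP and density less affected; inactive = any of these conditions unmet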; note: one replicate is shown; some compounds called inactive have numbers as strong as hits
UCH37 DUB inh: blocks the human deubiquitinase UCH37. inhibition, % (concentration not given with the values). purified proteasome/UCH37, Ub-AMC cleavage fluorescence. Q9Y5K5. AID 588478. 0.33% of 330,000 active;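 active = mean of two replicates above 20%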;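 note: 0% = compound-free wells with enzyme and 100% = wells lacking proteasome; stock transfer was 100 nL into about 20 µL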
Target sequence (Q9Y5K5 whole entry, looked up): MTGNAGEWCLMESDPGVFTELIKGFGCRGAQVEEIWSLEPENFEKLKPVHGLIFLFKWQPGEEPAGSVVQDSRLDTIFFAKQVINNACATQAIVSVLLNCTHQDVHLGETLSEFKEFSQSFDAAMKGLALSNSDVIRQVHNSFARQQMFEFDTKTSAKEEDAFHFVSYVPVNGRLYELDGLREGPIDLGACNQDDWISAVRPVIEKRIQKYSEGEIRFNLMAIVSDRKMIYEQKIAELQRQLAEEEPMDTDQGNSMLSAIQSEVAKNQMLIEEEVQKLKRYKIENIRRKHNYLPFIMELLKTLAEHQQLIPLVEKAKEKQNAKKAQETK
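Material: Human UCH37 enzyme supplied as purified proteasome complex | Schedule: 30 min preincubation with enzyme, 25 min cleavage at room temperature | Detection: AMC fluorescence 355/460 nm | Measure: % inhibition of Ub-AMC cleavage fluorescence | Controls: Wells without proteasome as full block, compound-free enzyme plus substrate as uninhibited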
A1 inh: inhibitors of the anti-apoptotic protein A1, read as caspase activation; 0.066% of 330,000 active; MEF A1-2A-BIM cells, Caspase-Glo 3/7 luminescence, 3 h; percent of clofoctol response, vehicle zero; caspase activation, % (concentration not given with the values);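 active = over half of replicate activation scores above 10%, or exactly half above 10 with the replicate mean above 10; inconclusive = replicate mean below 10 yet half the replicates above 10; inactive = over half of replicates below 10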;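 note: wells of about 30 µL received 50 nL stock; many hits fall short of the cut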
T cruzi repl: T. cruzi replication inhibition. T. cruzi beta-gal in NIH3T3, luminescence, 90 h. inhibition, % (concentration not given with the values). 1.4% of 300,000 active;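 active = mean inhibition across valid replicates above about 55%, limit read from the data; inconclusive = mean below that limit but half or more replicates reach it; inactive = mean below it, under half of replicates reach it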;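 note: signal also drops with host cell toxicity which is not excluded here; 0% = plate median of DMSO wells and 100% = zero luminescence signal; higher percent means less beta-gal luminescence so fewer parasites; stock transfer was 50 nL into about 50 µL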
Beta cell apopt: beta cell apoptosis inhibition. INS-1E cytokine-induced death, ATP luminescence, 48 h; percent of positive-control rescue, neutral wells zero. protection from apoptosis, % (test concentration not listed). 0.8% of 300,000 active;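 active = all replicates at 75% or more, or half of them and the mean; inconclusive = half reach 75% but not the mean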;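 note: 0% = cytokine-treated negative control wells and 100% = positive control rescue; higher means more ATP so stronger rescue from cytokine killing; wells of about 40 µL received 100 nL stock; the first replicate is given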
FGF22 binding: FGF22 (human) thermal shift binding. calls only at 9.99 µM. 1.5% of 340,000 active. Q9HCT0. recombinant FGF22 thermal shift, SYPRO orange fluorescence; percent of sucrose octasulfate shift, DMSO zero;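 active = melting point raised past a set limit in the mean and every replicate; inconclusive = no clear call; three in four hits are not shown here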
Target sequence (Q9HCT0 whole entry, looked up): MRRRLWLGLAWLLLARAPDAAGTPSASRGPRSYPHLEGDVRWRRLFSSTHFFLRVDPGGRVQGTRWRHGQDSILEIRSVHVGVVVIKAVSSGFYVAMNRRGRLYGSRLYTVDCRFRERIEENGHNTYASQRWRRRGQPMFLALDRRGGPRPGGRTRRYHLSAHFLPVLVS
AF4-AF9 inh: MLL-AF4/AF9 protein interaction inhibition; AlphaScreen, biotin-AF4 peptide binding to FLAG-AF9; P42568; inhibition, % at 10 µM; 0.47% of 350,000 active;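 active = every replicate reaching a set inhibition limit, whatever the replicate mean, cut at about 25% in these data; inconclusive = mean inhibition reaches that limit but some replicates miss it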;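 note: 0% = plate neutral control median and 100% = total signal loss; the record names both 10 and 1 µM as test concentration; the first replicate is given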
Target sequence (P42568 whole entry, looked up): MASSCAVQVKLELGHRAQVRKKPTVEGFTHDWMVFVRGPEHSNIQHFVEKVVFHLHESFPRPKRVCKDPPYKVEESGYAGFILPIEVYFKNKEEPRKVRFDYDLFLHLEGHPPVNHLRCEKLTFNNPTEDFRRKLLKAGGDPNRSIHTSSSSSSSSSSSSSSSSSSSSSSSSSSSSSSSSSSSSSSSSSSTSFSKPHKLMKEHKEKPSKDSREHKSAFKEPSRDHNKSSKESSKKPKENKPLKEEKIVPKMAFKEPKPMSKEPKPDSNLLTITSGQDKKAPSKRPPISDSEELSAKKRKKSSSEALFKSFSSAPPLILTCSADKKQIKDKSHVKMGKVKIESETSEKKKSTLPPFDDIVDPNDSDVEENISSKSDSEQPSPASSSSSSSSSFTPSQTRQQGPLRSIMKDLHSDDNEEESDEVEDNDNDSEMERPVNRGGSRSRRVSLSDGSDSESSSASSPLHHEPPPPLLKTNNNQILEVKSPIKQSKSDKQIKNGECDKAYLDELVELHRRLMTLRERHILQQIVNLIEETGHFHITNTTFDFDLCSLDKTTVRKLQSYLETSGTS
E coli growth: blocks Escherichia coli growth. OD600, 23 h; active compounds read low. OD600 absorbance (test concentration not listed). 0.21% of 330,000 active. AID 1053175;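 active = OD600 absorbance below the run mean of sample wells minus 3.6 SD, in any replicate, cut at about 0.56 in these data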;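 note: stock transfer was 300 nL into about 60 µL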
Ecoli rRNA inh OD600: second read-out of Ecoli rRNA inh, no call of its own (marks repeat the call); OD600 change, %; measured here: OD600 growth;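 optical density of the mix in the first replicate; 0 = DMSO median and -100 = no signal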
Ecoli rRNA inh RFP: recorded beside Ecoli rRNA inh, whose call it bears; RFP signal change, %; measured here: RFP humanized mutant strains;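 first replicate; 0 = DMSO median and -100 = no signal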
Numbers without * were called inactive; i = inactive; ? = inconclusive; · = not tested or not shown; & = joins results of further samples.

SMILES	Ecoli rRNA inh	Ecoli rRNA inh OD600	Ecoli rRNA inh RFP	UCH37 DUB inh	A1 inh	T cruzi repl	Beta cell apopt	FGF22 binding	AF4-AF9 inh	E coli growth
CCOc1ccc(-c2[nH]nc3c2C(c2ccc(O)cc2)C(C#N)=C(N)O3)cc1 (stereo not given)	-9	-9	0.5	5.1	-0.5	-6	-6	i	2.1	0.7
Cc1ccccc1C(=O)NC1CCN(Cc2nnnn2CCc2ccccc2)CC1	·	·	·	2.7	0.5	12	7	·	·	0.65
COC(CNC(=O)CCc1c(C)nc2c(-c3ccccc3)c(C)nn2c1C)OC	3	2	2.1	4.7	-0.1	12	2	i	-11	0.68
CS(=O)(=O)c1[nH]nc(-c2cccc(Cl)c2)c1C#N	-29	-22	-7.5	2.2	-0.9	12	-2	i	-4.8	0.63
CCOC(=O)c1ccccc1NC(=S)N1CCC(C)CC1	·	·	·	2.1	2.4	0	-4	·	·	0.69
Nc1nnc(-c2cccc(F)c2)s1	4	6	-2.8	-0.5	0.2	-18	2	i	-6.7	0.65
CN(Cc1cccnc1)C(=O)CNC(=O)COc1ccccc1	5	9	-0.9	0.0	-1.3	-23	-3	i	-0.5	0.67
CCCC1=C([O-])C2N=CC=CC2=[N+](c2ccccn2)C1=O (stereo not given)	·	·	·	6.1	-0.6	-26	-3	·	·	0.68
Cc1ccsc1C(=O)OCC(=O)Nc1cccc(S(=O)(=O)N2CCOCC2)c1	-8	-9	0.1	0.4	0.3	-1	-2	i	-5.4	0.73
CCOC(=O)c1c(C)nc(C)c(C(=O)OCC)c1-c1ccc(O)c(OC)c1	-4	-5	-2.9	2.9	0.7	11	3	i	-1.1	0.7
CC(NC(=O)C1CC1)C(c1cccs1)N1CCOCC1 (stereo not given)	9	7	-7.8	1.1	-0.6	-10	4	i	-1.9	0.69
CC(C)N(C(=O)CN1C(=O)NC(c2ccccc2)(c2ccccc2)C1=O)C(C)C	1	13	-2.2	1.5	0.4	-15	4	i	-8.0	0.67
CC1CN(S(=O)(=O)c2ccc(C(=O)Nc3nccs3)cc2)CC(C)O1 (stereo not given)	6	3	-3.5	0.9	-1.1	8	-1	i	10	0.68
CCC(=O)NC(=S)Nc1ccccc1C(F)(F)F	·	·	·	-0.5	1.2	-35	-2	·	·	0.72
CCS(=O)(=O)c1nc(S(=O)(=O)c2ccc(C)cc2)c(N2CCC(O)CC2)s1	9	8	1.4	3.3	1.5	-16	-5	i	1.3	0.67
CSc1cccc(CNC(=O)C2CCC(=O)N(CCc3ccccn3)C2)c1 (stereo not given)	10	7	1.8	0.2	-0.6	-2	-4	i	-0.7	0.68
COc1ccccc1CNC(=O)C1CSC2(C)CCC(=O)N12 (stereo not given)	9	6	-1.2	3.5	-0.2	·	-8	i	-2.2	0.67
O=C(CSc1nccc(=O)[nH]1)NN(c1ccccc1)c1ccccc1	8	2	0.7	5.8	0.2	-12	3	i	-0.3	0.68
COc1cccc(-c2cc(C(F)(F)F)n3ncc(C(=O)N4CCc5ccccc5C4)c3n2)c1	0	-7	-0.9	-11	-0.2	14	0	·	-0.4	0.69
CCOC(=O)c1c(-c2ccc(Cl)cc2)c(C#N)c(=O)n(N)c1N	·	·	·	-55	-1.4	52	6	·	·	0.78
CC1CCN(C(=O)CN(Cc2ccc(Cl)cc2)S(C)(=O)=O)CC1	-15	-16	-4.6	4.4	0.3	-4	4	i	-0.1	0.72
Cc1cc(C)c(S(=O)(=O)c2ccccc2)c(N2CCOCC2)n1	1	2	2.7	1.9	0.0	-15	-7	i	-1.9	0.74
CCn1c(C(=O)N2CCC(C(=O)NCc3cccs3)CC2)cc2sccc21	0	-2	3.2	2.9	0.5	-4	5	i	-9.0	0.7
COc1ccc(/C=C/C(=O)NCCN=C2NS(=O)(=O)c3ccccc32)cc1	-7	-3	-1.2	4.0	1.0	-4	·	i	0.1	0.62
O=C(C1=C[C@@H](C2CCCCC2)C[C@@H](OCCCCO)O1)N1CCN(Cc2ccc3c(c2)OCO3)CC1	-53	-75	-34	1.2	-0.5	34	6	i	3.9&3.1	·
CCn1cc(C(=O)NCCc2ccc(Cl)cc2)c(=O)c2cc(S(=O)(=O)N(C)C)ccc21	9	7	1.5	-0.2	·	-2	·	i	-8.0	0.64
O=C1C2C3C=CC(C4CC34)C2C(=O)N1/N=C/c1c[nH]c2ccccc12 (stereo not given)	-2	-3	-0.8	·	0.3	9	·	i	-5.0	·
COc1ccc(-c2ccc(Nc3ccc(C(=O)N4CCOCC4)cc3)nn2)cc1OC	·	·	·	3.9	?	-3	9	·	·	0.73
COc1ccc(OC)c(S(=O)(=O)N2c3ccccc3CC2C)c1 (stereo not given)	-17	-18	-7.6	1.6	0.5	3	-3	i	4.2	0.71
COc1ccc(C2CC(=O)CC(=O)C2n2cncn2)cc1 (stereo not given)	·	·	·	-2.3	-0.1	-16	6	·	·	0.71
Cc1ccc(Sc2ncccc2C(=O)NC2CCCCCC2)cc1C	·	·	·	5.5	0.5	-6	-4	·	·	0.71
O=C(Nc1ccc2[nH]c(=O)[nH]c2c1)c1cccc([N+](=O)[O-])c1	3	13	8.3	2.4	?	6	0	i	-1.3	0.68
Cc1ccc2nsnc2c1S(=O)(=O)N1CCOCC1	·	·	·	4.1	0.1	-16	-8	·	·	0.7
CC(C)OC(=O)NS(=O)(=O)c1cccc([N+](=O)[O-])c1	5	7	-0.3	1.3	0.2	5	-8	i	1.0	0.69
CC(C)CCNC(=O)C(c1ccncc1)N(C(=O)Cn1nnc(-c2ccc(F)cc2)n1)c1ccccc1F (stereo not given)	2	17	1.4	-0.9	0.5	16	-1	i	0.1	0.68
O=C(CS(=O)(=O)c1c[nH]c2ccccc12)N1CCCCC1	·	·	·	2.3	0.3	4	·	·	·	0.71
COc1ccc2oc(C(=O)NCCc3ccccc3)c(C)c2c1	-29	-50	-3.4	-12	-8.5	-7	-2	i	-4.0	0.62
CCC(C(=O)OCC(=O)NC(=O)NC(C)(C)C)c1ccccc1 (stereo not given)	-2	-5	1.9	4.0	0.3	3	-2	i	-0.1	0.66
Cc1ccc(-n2c(C)cc(C)c(C#N)c2=O)cc1	·	·	·	-0.1	-1.0	5	-2	·	·	0.69
N/C(=N\OC(=O)c1cccs1)C1(c2ccc(Cl)cc2Cl)CC1	-6	0	-2.4	·	0.3	5	-1	i	-3.7	·
Cc1cccc(-c2nnc(SCC(=O)Nc3nc4c(s3)CCCC4)n2C)c1	·	·	·	0.9	1.6	7	-6	·	·	0.71
COC(=O)C1=C(C)N(c2ccc(OC)cc2)C(C)=C(C(=O)OC)C1c1ccccc1	11	5	-1.0	-2.2	1.4	34	6	i	3.7	0.68
Cc1ccc(C(=O)CSc2nnc(-c3ccccc3N)n2C)cc1	1	-13	-2.2	-0.2	0.8	3	-2	·	·	0.73
Oc1c(Br)cc(Br)cc1CNc1ccccn1	-53	-68	-18	3.4	1.1	-15	-12	i	2.1	0.67
COc1ccc(CNC(=O)c2cc(C)nc3ccccc23)cc1OC	13	19	-0.6	2.1	0.4	9	-6	i	-0.4	0.69
OCCC1CN(Cc2cccn2-c2nccs2)CCN1CCc1ccccc1 (stereo not given)	0	1	0.5	2.6	-0.4	2	0	i	3.7	0.71
COc1ccc(-c2nc(CS(=O)(=O)CC(=O)NCCCc3ccccc3)c(C)o2)cc1	9	6	3.3	0.0	1.3	11	-6	i	-3.8	0.7
Cn1c(=O)n(C)c2cc(NS(=O)(=O)c3ccccc3[N+](=O)[O-])ccc21	-8	-5	-2.7	0.6	0.3	-2	3	i	-5.0	0.62
O=C(O)c1cccnc1SC1CC(=O)N(Cc2ccccc2)C1=O (stereo not given)	·	·	·	3.8	-0.4	-2	0	·	·	0.68
O=C1CC(c2ccccc2)c2cccc(F)c21 (stereo not given)	1	1	0.9	4.0	-0.1	-16	-4	i	-0.4	0.67

Overlap with the part before: 4 entries, then new ones.
SMILES	Ecoli rRNA inh	Ecoli rRNA inh OD600	Ecoli rRNA inh RFP	UCH37 DUB inh	A1 inh	T cruzi repl	Beta cell apopt	FGF22 binding	AF4-AF9 inh	E coli growth
COc1ccc(-c2nc(CS(=O)(=O)CC(=O)NCCCc3ccccc3)c(C)o2)cc1	9	6	3.3	0.0	1.3	11	-6	i	-3.8	0.7
Cn1c(=O)n(C)c2cc(NS(=O)(=O)c3ccccc3[N+](=O)[O-])ccc21	-8	-5	-2.7	0.6	0.3	-2	3	i	-5.0	0.62
O=C(O)c1cccnc1SC1CC(=O)N(Cc2ccccc2)C1=O (stereo not given)	·	·	·	3.8	-0.4	-2	0	·	·	0.68
O=C1CC(c2ccccc2)c2cccc(F)c21 (stereo not given)	1	1	0.9	4.0	-0.1	-16	-4	i	-0.4	0.67
CC(=O)c1ccc(NC(=O)CN2CCN(c3ccccc3)CC2)cc1	-3	1	-1.0	1.5	-0.8	-5	·	i	-5.3	0.68
CCSC1=NCCN1C(=O)c1ccc(S(=O)(=O)N(C)C)cc1	14	8	1.3	3.7	1.2	-7	2	i	-0.6	0.72
Cc1ccc(NC(=O)NNS(=O)(=O)c2ccc(Br)cc2)cc1	·	·	·	3.3	0.7	-18	0	·	·	0.74
O=C(CSc1nccc(=O)[nH]1)NC1CCCc2ccccc21 (stereo not given)	6	0	-6.7	-1.2	-0.2	-1	-3	i	3.5	0.75
COCCCN=C1NN=C(c2cc(C)n(Cc3ccco3)c2C)CS1	3	7	1.9	8.6	0.1	-41	-12	i	12	0.7
COc1ccc(Br)cc1CN(C)CC(=O)Nc1cccc(S(=O)(=O)N2CCCC2)c1	-9	-32	-3.3	6.5	1.2	·	-3	i	1.8	0.69
COC(=O)[C@@H](NC(=O)c1ccccc1)[C@@H](C)O	9	16	-2.4	2.1	0.5	-19	-1	i	·	·
CC1=CC(C)(C)N(C(=O)CSc2ncn[nH]2)c2ccccc21	·	·	·	1.8	-0.2	-4	-1	·	·	0.63
CN(Cc1ccc(F)cc1)C(=O)c1cc(COc2ccc(F)cc2F)on1	-13	-17	-2.6	-1.9	0.1	0	-3	i	-2.5	0.72
O=C(CN(C(=O)CCC(=O)Nc1nccs1)c1cccc(F)c1)NCc1ccc2c(c1)OCO2	1	20	5.9	1.6	0.1	9	3	i	-3.5	0.73
COc1cnn(-c2cc(Oc3ccc(C)cc3)ncn2)c(=O)c1Cl	·	·	·	-0.4	-0.3	-8	3	·	·	0.69
CC1(c2ccc(C#N)cc2)NC(=O)N(CC(=O)Nc2cc(S(=O)(=O)N3CCOCC3)ccc2Cl)C1=O (stereo not given)	2	7	4.0	0.1	-0.2	2	1	i	1.0	0.71
CCSC1=N/C(=C\c2cccnc2)C(=O)N1c1ccccc1	·	·	·	-48	-0.1	-4	-12	·	·	0.69

Not all compounds are listed (hit frequency here may not be typical).
